Env fusion inh: HIV envelope-mediated fusion inhibition. HeLa-JRFL Env/CEM21 cell fusion, luciferase. inhibition, % at 12.3 µM. 1.1% of 360,000 active. AID 651610;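 active means mean replicate inhibition score of at least 50 and every replicate individually at or above 50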;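 further: 0% = plate neutral controls and 100% = maraviroc near 300 nM; one replicate is shown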
Yeast UUG start: yeast start codon fidelity modulation; S. cerevisiae UUG-firefly luciferase reporter, luminescence/redox ratio; activity score, % at 18.7 µM; 0.13% of 350,000 active; AID 602363;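 active means replicate mean at a twofold rise or more, about +100% in these data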;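 further: firefly luciferase made from a UUG start codon reports start codon fidelity; reporter light over untreated wells divided by growth signal over untreated wells; some hits fall short of that in this replicate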
An asterisk follows results filed as active; & = joins results of further samples; [ ] = remark or other dose. These rows are one share of the data; rates above refer to the full screens.

SMILES	Env fusion inh	Yeast UUG start
C[C@H](CO)N1C[C@H](C)[C@H](CN(C)Cc2ccc3c(c2)OCO3)Oc2ncc(C#CCN(C)C)cc2C1=O	8.2&-6.9[16.7 µM]	17.1&-10.3
C[C@@H]1CN([C@H](C)CO)C(=O)c2cc(C3=CCCCC3)cnc2O[C@H]1CN(C)C(=O)Cc1ccccc1	-3.7[16.7 µM]	3.1
CC(C)NC(=O)N[C@@H]1CC[C@H](CCNC(=O)C2CCC2)O[C@@H]1CO	2.1[16.7 µM]	-9.5
CS(=O)(=O)N1[C@@H](C#N)[C@@H](c2ccc(C#CC3CC3)cc2)[C@@H]1CO	-1.3[16.7 µM]	-6.3
C[C@@H](NC(=O)C[C@@H]1CC[C@H]2[C@@H](COC[C@@H](O)CN2Cc2cc(F)ccc2F)O1)c1ccccc1	14.5[16.7 µM]	34.3
C/C=C/c1ccc2c(c1)O[C@H](CN(C)C(=O)Nc1ccc(C(F)(F)F)cc1)[C@@H](C)CN([C@H](C)CO)S2(=O)=O	43.7[16.7 µM]	-5.8
C[C@@H]1CN([C@H](C)CO)C(=O)Cc2cc(NS(=O)(=O)c3ccc(Cl)cc3)ccc2O[C@H]1CN(C)S(=O)(=O)c1ccccc1	-1.5[16.7 µM]	7.9
Cc1noc(C)c1NC(=O)N(C)C[C@H]1Oc2ccc(NC(=O)CCN3CCOCC3)cc2C(=O)N([C@H](C)CO)C[C@H]1C	-11.9[16.7 µM]	8.1
COc1ccc(S(=O)(=O)Nc2ccc3c(c2)C(=O)N([C@@H](C)CO)C[C@@H](C)[C@@H](CN(C)S(=O)(=O)c2ccc(F)cc2)OCCCC[C@H](C)O3)cc1	-6.4[16.7 µM]	-8.8
C[C@H](CO)N1C[C@H](C)[C@@H](CN(C)C(=O)NC2CCCC2)Oc2ncc(Br)cc2C1=O	-10.5[16.7 µM]	34.5
CN(C)C(=O)c1cccc(-c2ccc([C@@H]3[C@H](C#N)N(C(=O)C4CCC4)[C@H]3CO)cc2)c1	-19.5[16.7 µM]	-1.8
C[C@@H]1CCCCO[C@@H](CN(C)S(=O)(=O)c2ccc(Cl)cc2)[C@@H](C)CN([C@H](C)CO)C(=O)c2cc(NC(=O)CCCN(C)C)ccc2O1	11.6[16.7 µM]	0.5
C[C@@H]1CCCCO[C@H](CN(C)C(=O)Nc2ccc(C(F)(F)F)cc2)[C@@H](C)CN([C@H](C)CO)C(=O)c2cc(NC(=O)Nc3ccc(F)cc3)ccc2O1	-1.8[16.7 µM]	-15.8
O=C(N[C@H]1CC[C@@H](CCNS(=O)(=O)c2ccccc2)O[C@@H]1CO)c1cccnc1	14.2[16.7 µM]	-13.8
C/C=C/c1cnc2c(c1)C(=O)N([C@H](C)CO)C[C@@H](C)[C@@H](CN(C)S(=O)(=O)c1ccc(F)cc1)O2	26.7[16.7 µM]	10.4
C[C@@H]1CN([C@H](C)CO)C(=O)Cc2cc(NS(=O)(=O)c3ccc(F)cc3)ccc2O[C@@H]1CN(C)C(=O)Nc1ccc(F)cc1	-10.8[16.7 µM]	1.7
C[C@H]1CN([C@@H](C)CO)C(=O)c2cccc(NC(=O)Nc3ccc4c(c3)OCO4)c2O[C@H]1CN(C)C(=O)Nc1ccc2c(c1)OCO2	-4.5[16.7 µM]	-3.0
C[C@H](CO)N1C[C@H](C)[C@@H](CN(C)C(=O)Cc2ccccc2)OCCCC[C@H](C)Oc2ccc(NC(=O)c3ccccc3)cc2C1=O	-52.1[16.7 µM]	-2.9
C[C@@H]1CCCCO[C@@H](CN(C)C(=O)Nc2cccc3ccccc23)[C@@H](C)CN([C@H](C)CO)C(=O)c2cc(NC(=O)Nc3cccc4ccccc34)ccc2O1	-12.4[16.7 µM]	4.8
COCC#Cc1cnc2c(c1)C(=O)N([C@@H](C)CO)C[C@H](C)[C@H](CN(C)C(=O)CCN1CCCCC1)O2	-16.6[16.7 µM]	36.7
C[C@H]1CN([C@@H](C)CO)C(=O)c2cccc(NS(=O)(=O)c3cccs3)c2O[C@H]1CN(C)Cc1ccccc1	-8.4[16.7 µM]	-7.0
COc1ccccc1-c1cnc2c(c1)C(=O)N([C@@H](C)CO)C[C@H](C)[C@@H](CN(C)Cc1cccc(F)c1)O2	-1.2[16.7 µM]	5.1
COc1ccc(NC(=O)N(C)C[C@@H]2Oc3ccc(NC(=O)Cc4cn(C)c5ccccc45)cc3C(=O)N([C@@H](C)CO)C[C@H]2C)cc1	14.6[16.7 µM]	2.7
C[C@H]1CN([C@@H](C)CO)C(=O)c2cc(-c3cncnc3)cnc2O[C@@H]1CN(C)C(=O)Cc1cccnc1	-24.7[16.7 µM]	-2.3
N#C[C@H]1[C@@H](c2ccccc2)[C@@H](CO)N1C(=O)Cc1ccccc1	-3.5[16.7 µM]	12.4
Later entries:
SMILES	Env fusion inh	Yeast UUG start
CC(C)NC(=O)N(C)C[C@@H]1Oc2c(NC(=O)Nc3ccc(C(F)(F)F)cc3)cccc2C(=O)N([C@@H](C)CO)C[C@H]1C	30.8[16.7 µM]	17.2
C/C=C/c1ccc2c(c1)O[C@@H](CN(C)C(=O)CN(C)C)[C@H](C)CN([C@H](C)CO)S2(=O)=O	-12.6[16.7 µM]	-2.8
CCC(=O)N(C)C[C@H]1Oc2cc(-c3ccc(C)cc3)ccc2S(=O)(=O)N([C@H](C)CO)C[C@@H]1C	2.9[16.7 µM]	8.3
C[C@H]1CN([C@@H](C)CO)C(=O)c2cc(C#Cc3cccnc3)cnc2O[C@H]1CN(C)C(=O)CN(C)C	-16.4[16.7 µM]	-16.1
C[C@@H]1CN([C@@H](C)CO)C(=O)c2cc(C#CC3CCCC3)cnc2O[C@H]1CN(C)C(=O)Nc1ccccc1	2.1[16.7 µM]	156.9*
COc1ccccc1CN1C[C@H](C)[C@H](OC)CN(C)C(=O)c2ccc(NC(C)=O)cc2OC[C@@H]1C	-2.5[16.7 µM]	-3.8
C[C@H](CO)N1C[C@H](C)[C@H](CN(C)S(=O)(=O)c2ccc(F)cc2)OCCCC[C@H](C)Oc2ccc(NC(=O)CCCCCC(=O)Nc3ccccc3N)cc2C1=O	-2.2[16.7 µM]	-4.0
C[C@H]1CCCCO[C@@H](CN(C)C)[C@@H](C)CN([C@@H](C)CO)C(=O)c2cc(NC(=O)Nc3ccc(F)cc3)ccc2O1	12.2[16.7 µM]	73.1
C[C@H](CO)N1C[C@H](C)[C@H](CN(C)Cc2ccc(Oc3ccccc3)cc2)Oc2ccc(N(C)C)cc2CC1=O	12.1[16.7 µM]	-1.8
CCNC(=O)Nc1ccc2c(c1)C(=O)N(C)[C@H]1CC[C@@H](CC(=O)NCC3CCCCC3)O[C@@H]1CO2	15.3[16.7 µM]	40.2
COc1cccc(NC(=O)N[C@@H]2C=C[C@H](CC(=O)N3CCN(C)CC3)O[C@H]2CO)c1	-9.3[16.7 µM]	-7.2
C[C@H]1CN([C@@H](C)CO)C(=O)c2cc(NC(=O)Nc3ccccc3)ccc2O[C@H]1CN(C)C(=O)Nc1ccccc1	-6.3[16.7 µM]	2.7
CC(C)CC#Cc1ccc2c(c1)O[C@@H](CN(C)Cc1ccccc1)[C@H](C)CN([C@@H](C)CO)S2(=O)=O	-1.0[16.7 µM]	13.9
O=C(C[C@@H]1C[C@H]2c3cc(NC(=O)NC4CCCCC4)ccc3O[C@H]2[C@@H](CO)O1)NCc1cccnc1	-5.9[16.7 µM]	-17.6
Cc1noc(C)c1NC(=O)N(C)C[C@@H]1OCCCC[C@H](C)Oc2ccc(NS(=O)(=O)c3c(C)noc3C)cc2C(=O)N([C@@H](C)CO)C[C@H]1C	-4.6[16.7 µM]	56.6
COCC(=O)Nc1ccc2c(c1)C(=O)N(C)C[C@H](OC)[C@H](C)CN(CCC(F)(F)F)[C@@H](C)CO2	8.0[16.7 µM]	3.5
CNC[C@@H]1Oc2ccc(NC(=O)CCC(F)(F)F)cc2CC(=O)N([C@H](C)CO)C[C@@H]1C	9.2[16.7 µM]	-9.0
C/C=C/c1ccc2c(c1)O[C@@H](CN(C)C(=O)c1cccc(F)c1)[C@H](C)CN([C@H](C)CO)S2(=O)=O	12.1[16.7 µM]	9.1
O=C(C[C@@H]1C[C@@H]2c3cc(NC(=O)Cc4ccncc4)ccc3O[C@@H]2[C@H](CO)O1)NCc1cc(F)ccc1F	14.9[16.7 µM]	-8.6
Cc1noc(C)c1NC(=O)N(C)C[C@H]1Oc2ccc(NC(=O)Nc3cccc4ccccc34)cc2C(=O)N([C@@H](C)CO)C[C@@H]1C	25.3[16.7 µM]	0.9
CCCC#Cc1cnc2c(c1)C(=O)N([C@@H](C)CO)C[C@@H](C)[C@@H](CN(C)C(=O)Nc1ccc(OC)cc1)O2	4.8[16.7 µM]	17.1
COCC(=O)N1[C@H](C#N)[C@@H](c2ccc(C3=CCCCC3)cc2)[C@@H]1CO	-10.8[16.7 µM]	6.2
C/C=C/c1ccc2c(c1)O[C@@H](CN(C)C(=O)c1ccccc1)[C@H](C)CN([C@@H](C)CO)S2(=O)=O	16.6[16.7 µM]	1.5
CNC[C@H]1Oc2c(NC(=O)Nc3ccc(C(F)(F)F)cc3)cccc2C(=O)N([C@H](C)CO)C[C@H]1C	-4.5[16.7 µM]	9.3
COc1ccccc1NC(=O)N[C@H]1C=C[C@@H](CC(=O)N[C@@H](C)c2ccccc2)O[C@@H]1CO	20.7[16.7 µM]	-2.5
New compounds follow
SMILES	Env fusion inh	Yeast UUG start
Cc1ccc(S(=O)(=O)N(C)C[C@H]2OCCCC[C@H](C)Oc3ccc(NC(=O)Cc4ccccc4)cc3C(=O)N([C@H](C)CO)C[C@@H]2C)cc1	-49.3[16.7 µM]	-1.3
COc1ccc(NC(=O)N(C)C[C@H]2Oc3ncc(C#C[C@H](C)O)cc3C(=O)N([C@@H](C)CO)C[C@@H]2C)cc1	-2.1[16.7 µM]	-12.8
C[C@@H]1CCCCO[C@@H](CN(C)Cc2ccc(C(F)(F)F)cc2)[C@@H](C)CN([C@@H](C)CO)C(=O)c2cc(NS(=O)(=O)c3ccc(F)cc3)ccc2O1	17.5[16.7 µM]	12.0
Cc1noc(C)c1S(=O)(=O)N(C)C[C@@H]1Oc2c(NS(=O)(=O)c3cn(C)cn3)cccc2C(=O)N([C@H](C)CO)C[C@@H]1C	-8.0[16.7 µM]	-5.8
COc1ccc(S(=O)(=O)N[C@H]2CC[C@@H](CC(=O)NCCc3ccncc3)O[C@H]2CO)cc1	5.2[16.7 µM]	-13.4
C[C@@H]1CCCCO[C@@H](CN(C)S(=O)(=O)c2ccc(Cl)cc2)[C@@H](C)CN([C@H](C)CO)C(=O)c2cc(NC(=O)c3ccccc3)ccc2O1	2.7[16.7 µM]	-9.5
CNC[C@H]1Oc2ncc(C#CC3CCCC3)cc2C(=O)N([C@H](C)CO)C[C@H]1C	25.8[16.7 µM]	5.2
O=C(N[C@@H]1CC[C@H](CC(=O)N2CCc3ccccc3C2)O[C@@H]1CO)C1CCOCC1	-11.8[16.7 µM]	-16.7
CCC(=O)N(C)C[C@@H]1Oc2ncc(C#CC(C)C)cc2C(=O)N([C@H](C)CO)C[C@H]1C	7.0[16.7 µM]	8.5
C[C@H]1CN([C@@H](C)CO)C(=O)c2cc(NS(=O)(=O)c3ccc(Cl)cc3)ccc2O[C@@H]1CN(C)Cc1ccc(C(F)(F)F)cc1	23.0[16.7 µM]	1.6
Cc1ccc(S(=O)(=O)N(C)C[C@H]2Oc3c(cccc3N(C)C)C(=O)N([C@@H](C)CO)C[C@H]2C)cc1	10.1[16.7 µM]	17.4
CCNC(=O)C[C@H]1CC[C@@H]2[C@H](COc3ccc(NC(=O)C4CCCCC4)cc3C(=O)N2C)O1	-22.7[16.7 µM]	7.5
CCCNC(=O)N(C)C[C@@H]1Oc2cc(C#CCOC)ccc2S(=O)(=O)N([C@@H](C)CO)C[C@H]1C	-15.3[16.7 µM]	12.0
CS(=O)(=O)Nc1ccc2c(c1)[C@H]1C[C@@H](CC(=O)NCc3ccccc3)O[C@H](CO)[C@H]1O2	6.8[16.7 µM]	-7.5
CCCC#Cc1cnc2c(c1)C(=O)N([C@H](C)CO)C[C@H](C)[C@H](CN(C)C(=O)c1ccc(F)cc1)O2	5.2[16.7 µM]	12.5
C[C@H]1CN([C@@H](C)CO)S(=O)(=O)c2ccc(Br)cc2O[C@H]1CN(C)C(=O)CC1CC1	22.8[16.7 µM]	18.3
O=C(Nc1ccccc1)N[C@H](Cc1ccccc1)Cn1cc(CN2C(=O)COC[C@H]2c2ccccc2)nn1	-9.7[16.7 µM]	83.6
C[C@@H]1CN([C@@H](C)CO)S(=O)(=O)c2ccc(C#C[C@@H](C)O)cc2O[C@@H]1CN(C)Cc1cncnc1	-47.8[16.7 µM]	-7.0
COc1ccc(NC(=O)Nc2ccc3c(c2)C(=O)N([C@H](C)CO)C[C@H](C)[C@H](CN(C)Cc2ccc4c(c2)OCO4)OCCCC[C@H](C)O3)cc1	68.3*[16.7 µM]	8.2
COc1cccc(NC(=O)N(C)C[C@H]2Oc3ncc(C4=CCCCC4)cc3C(=O)N([C@H](C)CO)C[C@@H]2C)c1	-34.8[16.7 µM]	10.5
C[C@H]1CN([C@@H](C)CO)S(=O)(=O)c2ccc(C#CCC3CCCC3)cc2O[C@@H]1CN(C)C(=O)CN(C)C	24.2[16.7 µM]	32.5

5 compounds picked at random from those above, as already listed:
SMILES	Env fusion inh	Yeast UUG start
O=C(Nc1ccccc1)N[C@H](Cc1ccccc1)Cn1cc(CN2C(=O)COC[C@H]2c2ccccc2)nn1	-9.7[16.7 µM]	83.6
C[C@H]1CN([C@@H](C)CO)C(=O)c2cc(NS(=O)(=O)c3ccc(Cl)cc3)ccc2O[C@@H]1CN(C)Cc1ccc(C(F)(F)F)cc1	23.0[16.7 µM]	1.6
Cc1ccc(S(=O)(=O)N(C)C[C@H]2Oc3c(cccc3N(C)C)C(=O)N([C@@H](C)CO)C[C@H]2C)cc1	10.1[16.7 µM]	17.4
CCNC(=O)C[C@H]1CC[C@@H]2[C@H](COc3ccc(NC(=O)C4CCCCC4)cc3C(=O)N2C)O1	-22.7[16.7 µM]	7.5
Cc1ccc(S(=O)(=O)N(C)C[C@H]2OCCCC[C@H](C)Oc3ccc(NC(=O)Cc4ccccc4)cc3C(=O)N([C@H](C)CO)C[C@@H]2C)cc1	-49.3[16.7 µM]	-1.3
